FGF22 binding: binders of recombinant human FGF22 by thermal shift; Q9HCT0; calls only at 9.99 µM; actives 1.5% (n = 340,000); AID 651658; SYPRO orange fluorescence; percent of sucrose octasulfate shift, DMSO zero;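 active = melting point raised past a set limit in the mean and every replicate; three in four hits are not shown here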
Target sequence (Q9HCT0 whole entry, looked up): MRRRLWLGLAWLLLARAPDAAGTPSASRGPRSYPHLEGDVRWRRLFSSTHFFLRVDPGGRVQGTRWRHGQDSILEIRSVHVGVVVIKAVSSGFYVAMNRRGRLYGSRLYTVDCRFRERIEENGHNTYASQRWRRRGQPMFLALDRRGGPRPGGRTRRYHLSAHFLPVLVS
MLL AF4-AF9 inh: blocks AF4 peptide binding to human AF9. P42568. AlphaScreen, biotin-AF4 peptide binding to FLAG-AF9. inhibition, % at 10 µM. actives 0.47% (n = 350,000). AID 651704;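 active = every replicate reaching a set inhibition limit, whatever the replicate mean, cut at about 25% in these data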;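 also: 0% = plate neutral control median and 100% = total signal loss; the record names both 10 and 1 µM as test concentration; the first replicate is given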
Target sequence (P42568 whole entry, looked up): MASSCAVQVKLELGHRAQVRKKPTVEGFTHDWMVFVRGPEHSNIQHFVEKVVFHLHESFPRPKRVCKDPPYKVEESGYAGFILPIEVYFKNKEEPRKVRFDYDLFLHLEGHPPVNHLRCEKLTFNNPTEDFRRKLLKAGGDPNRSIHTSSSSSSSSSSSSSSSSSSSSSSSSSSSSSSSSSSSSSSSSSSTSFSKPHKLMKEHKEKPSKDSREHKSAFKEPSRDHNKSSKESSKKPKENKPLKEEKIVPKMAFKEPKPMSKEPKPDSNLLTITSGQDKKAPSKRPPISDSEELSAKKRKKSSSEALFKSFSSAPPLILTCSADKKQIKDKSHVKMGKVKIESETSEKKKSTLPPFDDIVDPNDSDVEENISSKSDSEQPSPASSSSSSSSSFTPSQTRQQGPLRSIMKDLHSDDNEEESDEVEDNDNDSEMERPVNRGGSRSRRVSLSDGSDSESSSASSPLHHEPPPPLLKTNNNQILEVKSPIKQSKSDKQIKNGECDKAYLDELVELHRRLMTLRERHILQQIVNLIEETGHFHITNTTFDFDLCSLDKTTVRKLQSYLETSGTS
Ecoli rRNA inh: inhibits bacterial ribosomal RNA function over humanized ribosomes; E. coli WT GFP vs humanized-ribosome RFP mutants, fluorescence, 24 h; hits give low values; DMSO median 0, no signal -100; actives 1.6% (n = 350,000); GFP signal change (wild-type ribosome), % (test concentration not listed); AID 720706;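 active = significant combined selectivity score with lowered wild-type GFP, culture density cut under 30%, mutant RFP and density less affected; inactive = any of these conditions unmet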; also: one replicate is shown; some compounds called inactive have numbers as strong as hits
Ecoli rRNA inh OD600: also measured in Ecoli rRNA inh; calls as there; OD600 change, %; measured here: OD600 growth;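 optical density of the mix in the first replicate; 0 = DMSO median and -100 = no signal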
Ecoli rRNA inh RFP: also measured in Ecoli rRNA inh; calls as there; RFP signal change, %; measured here: RFP humanized mutant strains;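 first replicate; 0 = DMSO median and -100 = no signal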
Active calls of the source: *; i = inactive; · = not tested or not shown.

FGF22 binding	MLL AF4-AF9 inh	Ecoli rRNA inh	Ecoli rRNA inh OD600	Ecoli rRNA inh RFP	Structure
i	-0.8	1	11	-1.6	C[C@H]1CN([C@@H](C)CO)C(=O)c2cc(C#CCN(C)C)cnc2O[C@@H]1CN(C)C(=O)CCN1CCCCC1
i	-2.9	3	11	-1.4	COc1cc(CCC(=O)Nc2cc(S(=O)(=O)N3CCOCC3)ccc2OC(C)C)cc(OC)c1OC
i	5.7	-3	-21	13	C[C@H](CO)N1C[C@H](C)[C@H](CN(C)Cc2ccc(C(F)(F)F)cc2)OCCCC[C@H](C)Oc2ccc(NS(=O)(=O)c3cccs3)cc2C1=O
i	-1.5	1	7	3.3	CCOC(=O)[C@]12CCC=C1N(CCC1=CCCCC1)C(=O)[C@H](CC(=O)N1CCC(c3ccccc3)CC1)C2
i	-1.9	-14	-46	11	C[C@@H]1CN([C@@H](C)CO)C(=O)c2cc(NC(=O)Nc3ccc(F)cc3)ccc2O[C@@H]1CN(C)Cc1ccc(C(F)(F)F)cc1
i	-1.6	-2	0	-0.4	C[C@H](CO)N1C[C@H](C)[C@@H](CN(C)C(=O)Nc2ccc(F)cc2)OCCCC[C@H](C)Oc2ccc(NC(=O)Nc3ccc(F)cc3)cc2C1=O
i	-0.8	-1	-2	0.5	CCCNC(=O)N1C[C@H]2[C@@H](c3ccccc31)[C@H](CO)N2Cc1cccc(OC)c1
i	1.3	-6	-6	-0.3	CCCC(=O)Nc1ccc2c(c1)OC[C@@H](C)N(Cc1nccs1)C[C@@H](C)[C@@H](OC)CN(C)C2=O
i	2.9	3	8	-0.9	CC(C)CC#Cc1ccc2c(c1)O[C@@H](CN(C)Cc1cccc(F)c1)[C@H](C)CN([C@H](C)CO)S2(=O)=O
i	0.4	3	-1	-1.6	COc1ccccc1S(=O)(=O)N[C@H]1CC[C@H](CC(=O)NCc2cccc(F)c2)O[C@@H]1CO
i	-8.1	3	1	4.9	CN1CCN(C(=O)c2cc3c(c(-c4cccc(-c5ccc(C(=O)N(C)C)cc5)c4)n2)[C@@H](CCO)N([S@](=O)C(C)(C)C)C3)CC1
i	-12	0	-1	-2.6	COCCNC(=O)C[C@H]1CC[C@@H]2[C@H](COC[C@@H](O)CN2Cc2cccc(-c3ccncc3)c2)O1
i	0.4	4	4	1.7	C[C@@H]1CN([C@H](C)CO)C(=O)c2cc(NC(=O)Nc3cccc4ccccc34)ccc2O[C@@H](C)CCCCO[C@@H]1CN(C)S(=O)(=O)c1ccc(F)cc1
i	-12	2	5	-3.4	C/C=C/c1cnc2c(c1)C(=O)N([C@H](C)CO)C[C@@H](C)[C@H](CN(C)S(=O)(=O)c1cn(C)cn1)O2
i	-2.7	1	1	-1.1	C[C@@H]1CN([C@@H](C)CO)C(=O)c2cccc(NC(=O)C3CCOCC3)c2O[C@H]1CN(C)C(=O)Nc1ccc2c(c1)OCO2
i	7.4	-9	-8	-1.3	CC(=O)OC1(C(C)=O)CCC2C3CC4OC45CC(O)CCC5(C)C3CCC21C (stereo not given)
i	-3.8	4	15	-1.4	O=C(NCc1cccs1)c1ccc2nc([C@@H]3O[C@H](CO)[C@H](O)[C@H](O)[C@H]3O)[nH]c2c1
i	4.1	-4	-13	2.0	CCCNC(=O)N(C)C[C@@H]1Oc2cc(C3=CCCCC3)ccc2S(=O)(=O)N([C@H](C)CO)C[C@@H]1C
i	-13	2	6	3.2	O=C(C[C@@H]1C[C@@H]2c3cc(NC(=O)c4cccnc4)ccc3O[C@@H]2[C@H](CO)O1)NCCN1CCCCC1
i	0.7	3	11	-2.3	COc1cc(Nc2ccn3nc(-c4ccc(F)cc4)cc3n2)cc(OC)c1OC
i	-2.4	16	20	-0.8	CC(N)c1csc(Nc2ccc(C(=O)NCCO)cc2)n1 (stereo not given)
i	0.2	-4	-9	-0.5	C[C@@H]1CN([C@@H](C)CO)C(=O)c2cc(NS(=O)(=O)c3cccs3)ccc2O[C@@H](C)CCCCO[C@H]1CN(C)S(=O)(=O)c1ccc(F)cc1
i	-2.1	8	22	0.1	Cc1ccc(F)c(S(=O)(=O)NC(=O)C2(C)CCN2C(=O)C/C=C/c2ccccc2)c1 (stereo not given)
i	-0.3	1	2	1.3	COc1ccc(CN(C)C[C@H]2Oc3ccc(NC(=O)NC(C)C)cc3C(=O)N([C@H](C)CO)C[C@@H]2C)cc1
i	5.1	5	5	-3.9	Cc1cccc(C(=O)N=C2SC3CS(=O)(=O)CC3N2c2ccccc2)c1 (stereo not given)
i	-0.5	11	-15	16	CC(=O)N(C(C)=O)c1cccc(N(Cc2ccccc2)Cc2ccccc2)c1
i	-0.2	4	7	-1.5	O=c1[nH][nH]c2c1[C@H](C1CCCC1)O[C@H](CCc1ccccc1)C2
i	-0.2	0	-2	3.1	CC1=C(C(=O)N(C)C)CC(CC(=O)NC2CCCCC2)C(=O)N1CCC1=CCCCC1 (stereo not given)
i	-1.4	-3	-4	0.3	CC(C)NC(=O)Nc1ccc2c(c1)C(=O)N([C@H](C)CO)C[C@H](C)[C@@H](CN(C)S(=O)(=O)c1ccc(F)cc1)OCCCC[C@H](C)O2
i	-2.3	-1	5	-1.8	C[C@@H]1CN([C@H](C)CO)S(=O)(=O)c2ccc(C#Cc3cccc(F)c3)cc2O[C@@H]1CN(C)S(=O)(=O)c1ccccc1F
i	3.1	-31	-50	-11	CC(C)(C)N(Cc1ccc2c(c1)OCO2)C(=O)/C=C\S(=O)c1ccccc1 (stereo not given)
i	-2.8	-1	7	0.4	CNC[C@H]1Oc2ccc(NS(=O)(=O)c3cn(C)cn3)cc2CC(=O)N([C@H](C)CO)C[C@H]1C
i	-2.6	14	5	7.1	COC(=O)[C@H]1C[C@@]2(O)CN(S(=O)(=O)c3ccc(C)cc3)C[C@@]2(OC(=O)NCc2ccc(OC)c(OC)c2)C[C@H]1C(=O)OC
i	0.6	-2	1	-2.1	O=C(C[C@H]1C[C@H]2c3cc(NC(=O)c4cccnc4)ccc3O[C@H]2[C@@H](CO)O1)NCc1cccnc1
i	-0.3	-10	-9	-1.2	COc1ccc(CN2[C@H](CO)[C@@H]3c4ccccc4N(C(=O)C4CC4)C[C@@H]32)cc1
i	-17	5	3	-0.7	O=C(C[C@H]1C[C@@H]2c3cc(NC(=O)NC4CCCCC4)ccc3O[C@@H]2[C@@H](CO)O1)NCc1ccncc1
i	-2.2	7	8	-0.2	CCCCCCCCN1C(=O)[C@@H](CC(=O)NCc2ccc(C)o2)C[C@@]2(C(=O)OC)C1=C[C@H](C(C)(C)C)O[C@@H]2C
i	6.9	0	7	2.2	COC(=O)C[C@H]1C=C[C@@H](NS(=O)(=O)c2ccc(OC)cc2)[C@@H](CO)O1
i	-1.2	2	14	-1.3	CN(C)C(=O)c1ccc(-c2ccc([C@H]3[C@@H](C#N)N(S(C)(=O)=O)[C@@H]3CO)cc2)cc1
i	-2.0	1	7	0.1	CCCN1C[C@H](C)[C@@H](OC)CN(C)C(=O)c2ccc(NC(=O)C3CCC3)cc2OC[C@H]1C
i	-2.1	-3	-4	-1.4	C[C@@H]1CN([C@H](C)CO)C(=O)Cc2cc(NS(=O)(=O)c3ccc(Cl)cc3)ccc2O[C@@H]1CN(C)CC1CC1
i	-0.8	-1	3	-4.0	C[C@@H]1CN([C@H](C)CO)C(=O)c2cc(NC(=O)Nc3ccc4c(c3)OCO4)ccc2O[C@@H](C)CCCCO[C@@H]1CN(C)S(=O)(=O)c1ccccc1
i	0.9	3	11	1.6	CCNC(=O)[C@@H]1[C@@H](CO)[C@@H]2Cn3c(ccc(-c4cccc(F)c4)c3=O)[C@@H]2N1C(=O)Cc1cccnc1
i	-3.1	2	2	0.4	C[C@@H]1CN([C@@H](C)CO)C(=O)Cc2cc(NS(=O)(=O)c3cccs3)ccc2O[C@H]1CN(C)Cc1ccc(C(=O)O)cc1
i	2.4	-3	0	1.6	O=C(CN1CCOCC1)N[C@H]1CC[C@H](CCNC(=O)Nc2cc(F)ccc2F)O[C@H]1CO
i	5.2	-3	-6	3.3	Cc1noc(C)c1S(=O)(=O)N(C)C[C@H]1Oc2ccc(NS(=O)(=O)c3ccc(Cl)cc3)cc2CC(=O)N([C@H](C)CO)C[C@@H]1C
·	3.2	-12	-13	3.5	Nc1ccccc1-c1ccn[nH]1
i	2.5	-1	7	3.0	CCCc1nc2ccc(Br)cn2c1Cc1ccccc1
i	-6.6	10	8	-3.0	NS(=O)(=O)c1ccc(NC(=S)Nc2ccc(S(=O)(=O)Nc3nccs3)cc2)cc1
i	-1.5	-10	-22	-0.5	O=C(C[C@@H]1CC[C@H](NS(=O)(=O)c2ccccc2)[C@@H](CO)O1)N1CCC(Cc2ccccc2)CC1
i	-0.5	3	9	0.3	O=C(NCc1ccc(F)cc1)[C@@H]1[C@@H](CO)[C@@H]2Cn3c(cccc3=O)[C@@H]2N1Cc1ccccn1
i	-6.3	1	2	-0.8	CN1CCN(C(=O)C[C@H]2C=C[C@@H](NC(=O)Cc3ccccn3)[C@H](CO)O2)CC1
i	-2.2	-1	0	0.0	CCS(=O)(=O)Nc1ccc2c(c1)C(=O)N(C)[C@@H]1CC[C@@H](CC(=O)N3CCCCC3)O[C@@H]1CO2
i	-1.4	1	8	-1.9	CC(C)NC(=O)N(C)C[C@H]1Oc2c(NC(=O)NC3CCCCC3)cccc2C(=O)N([C@@H](C)CO)C[C@H]1C
i	-2.4	0	2	2.5	C[C@@H]1CN([C@H](C)CO)C(=O)c2cc(NS(=O)(=O)c3ccc(Cl)cc3)ccc2O[C@H]1CN(C)C(=O)NC1CCCCC1
i	-5.1	9	8	0.8	CNC[C@H]1OCCCC[C@H](C)Oc2ccc(N(C)C)cc2C(=O)N([C@H](C)CO)C[C@@H]1C
i	-1.6	-4	-8	7.0	CN1C(=O)c2cc(NC(=O)c3ccc(F)cc3)ccc2OC[C@@H]2O[C@@H](CC(=O)NCC3CCCCC3)CC[C@H]21
i	-2.6	4	6	2.7	C[C@@H]1CN([C@H](C)CO)C(=O)c2cc(C3=CCCC3)cnc2O[C@@H]1CN(C)C(=O)c1cccnc1
i	-1.0	-1	1	0.3	CCNC(=O)[C@H]1[C@H](CO)[C@H]2Cn3c(ccc(-c4ccccc4F)c3=O)[C@@H]1N2CC1CC1
i	4.2	5	12	-2.9	COc1ccc(-c2c(C)cc3oc(=O)cc(-c4ccccc4)c3c2C)cc1OC

More records:
FGF22 binding	MLL AF4-AF9 inh	Ecoli rRNA inh	Ecoli rRNA inh OD600	Ecoli rRNA inh RFP	Structure
i	12	-13	-28	2.2	C[C@@H]1CN([C@H](C)CO)C(=O)c2cccc(NC(=O)c3cnccn3)c2O[C@@H]1CN(C)Cc1ccc(Oc2ccccc2)cc1
i	3.5	7	0	15	COCCN1Cc2cc(C(=O)OC)c3c(c2C1=O)c1cc(F)ccc1n3C(=O)c1ccccc1
i	-2.3	-18	-37	-0.9	CC1(Cc2ccccc2OC(F)(F)F)C(=O)Nc2ccc(S(=O)(=O)NC3CCCCC3)cc21 (stereo not given)
i	-2.1	4	3	0.0	C[C@@H]1CN([C@H](C)CO)C(=O)c2cc(NS(=O)(=O)c3ccc(F)cc3)ccc2O[C@H]1CN(C)Cc1ccc2c(c1)OCO2
i	-0.4	0	16	2.9	CO[C@@H](CN(C)C(=O)c1ccc2c(c1)OCO2)[C@@H](C)CN([C@@H](C)CO)S(=O)(=O)c1ccc(C)cc1
i	-3.1	-3	8	-1.4	COCC#Cc1ccc([C@@H]2[C@H](CO)N3C(=O)CN(C(=O)c4ccncc4)C[C@@H]23)cc1
i	2.1	13	12	-0.1	CC1(C(=O)O)CCCN1C(=O)c1ccc(Cl)cc1Cl (stereo not given)

Some of the compounds tested, so the mix of outcomes need not match the whole.
